Screening data as filed in PubChem BioAssay.
H5N1 antiviral – MDCK cell protection from H5N1 avian flu; cytopathic effect, luminescence, 72 h; active compounds read high; no value below 0 was filed and about half of the inactive calls have no number; reference of the scale not given here; inhibition, % at 50 µM; actives 0.07% (n = 96,000); in the data active = inhibition above about 25%
* hit, by the source's call; i = inactive. A portion of the library; count on the stated rates, not on these rows.

SMILES	H5N1 antiviral
O=S(=O)(c1ccc(OCC(O)CN2CCC(Cc3ccccc3)CC2)cc1)N1CCOCC1 (stereo unspecified)	i
COc1cc(OC)nc(Oc2ccccc2C(=O)Oc2ccc(Cl)cc2)n1	0.2
Cc1ccc(NC(=O)CCC(=O)OCC(=O)c2ccc(Oc3ccc([N+](=O)[O-])cc3)cc2)c(C)c1	1.0
COc1cc(C(=O)NCCC(=O)NCCCN2CCCCC2C)cc(OC)c1OC (stereo unspecified)	0.5
CCC1=NC(c2ccc(OC)cc2)N(O)C1(C)C (stereo unspecified)	0.6
CC(=O)Nc1ccc(S(=O)(=O)N2CCCN(S(=O)(=O)c3ccc(NC(C)=O)cc3)CC2)cc1	1.5
COC(=O)C1=CNC=C(C(=O)OC)C1c1ccc(Cl)cc1	i
CCC(C)Cn1c(S(=O)(=O)O)nc2ccccc21 (stereo unspecified)	i
CC(OC(=O)CN(C)S(=O)(=O)c1ccc(Cl)cc1)C(=O)Nc1ncc(Cl)cc1Cl (stereo unspecified)	i
CCN(CC)C(=S)SCC(=O)c1ccc(F)cc1	i

Next part; it opens with the 2 that closed the last part.
SMILES	H5N1 antiviral
CC(OC(=O)CN(C)S(=O)(=O)c1ccc(Cl)cc1)C(=O)Nc1ncc(Cl)cc1Cl (stereo unspecified)	i
CCN(CC)C(=S)SCC(=O)c1ccc(F)cc1	i
CCC(=O)Nc1nc(=S)ss1	i
O=C(NCCCN1CCN(Cc2ccccc2)CC1)c1nnc(Cc2c(F)cccc2Cl)o1	i
O=C(c1ccco1)N1CCN(c2ncnc3c(-c4ccccc4)nsc23)CC1	0.4
CCOC(=O)C(C(=O)Nc1nc2ccccc2s1)C1CCCCC1 (stereo unspecified)	0.8
O=C(CN1C(=O)c2ccccc2C1=O)N1CCN(c2nnc(-c3ccccc3)c3ccccc23)CC1	i
O=c1c2ccccc2nc(-c2ccccc2)n1-n1cccc1	i
COC(=O)c1[nH]c2ccc(C)cc2c1NC(=O)C(C)N1CCN(C2CCCCC2)CC1 (stereo unspecified)	i
Cc1ccc(C(C)C)c(OCC(=O)Nc2ccc3c(c2)nc(CN2CCCC2)n3C)c1	i
CCOC(=O)c1ccc(N/C=C2\CCCCC2=O)cc1	0.4
O=C(c1cccc(C(F)(F)F)c1)N1CCC(O)(CS(=O)(=O)Cc2ccccc2)CC1	i

In a second layout: entries from further up
> COC(=O)c1[nH]c2ccc(C)cc2c1NC(=O)C(C)N1CCN(C2CCCCC2)CC1 (stereo unspecified)
  H5N1 antiviral = i

> CCOC(=O)C(C(=O)Nc1nc2ccccc2s1)C1CCCCC1 (stereo unspecified)
  H5N1 antiviral = 0.8

> O=C(NCCCN1CCN(Cc2ccccc2)CC1)c1nnc(Cc2c(F)cccc2Cl)o1
  H5N1 antiviral = i

> O=c1c2ccccc2nc(-c2ccccc2)n1-n1cccc1
  H5N1 antiviral = i

Remaining list, next part
SMILES	H5N1 antiviral
Cc1ccc(-c2noc(CCC(=O)NCC3CCCO3)n2)cc1 (stereo unspecified)	0.9
COCCOCCn1cnc2ccccc21	i
Cc1cccc(-n2c(CNC(=O)c3ccccc3)nnc2SCC(=O)Nc2nccs2)c1	i
CCOC(=O)C1=C(C)N=c2s/c(=C\C(=O)OC)c(=O)n2C1c1ccc(OC)cc1 (stereo unspecified)	0.3
CCOc1ccc2nc(SCC(=O)NCc3ccc4c(c3)OCO4)[nH]c2c1	1.1
CCc1cc2c(SCC(=O)O)ncnc2s1	0.1
O=C(Cn1c(=O)n(Cc2ccco2)c(=O)c2ccccc21)NCC1CCCO1 (stereo unspecified)	0.4
COc1ccc(F)cc1S(=O)(=O)N1CC(C)CC(C)C1 (stereo unspecified)	2.0
O=C(CSc1nnc(Cc2ccccc2)n1-c1ccccc1)NNC(=O)Cc1ccccc1	i
CC(OC(=O)CN1C(=O)NC(C)(C)C1=O)C(=O)c1ccccc1 (stereo unspecified)	i
Cn1c(=O)c2c(nc(NCCNC(=O)c3ccco3)n2Cc2ccc(Cl)cc2Cl)n(C)c1=O	i
CCn1c(=O)n(-c2ccc(Cl)cc2)c(=O)c2c3c(sc21)COC(C)(C)C3	i
CCCCc1nnc(SCCSc2nnc(CCCC)n2N)n1N	i
Cc1nc2nc(-c3ccco3)[nH]n2c(=O)c1Cc1ccccc1	2.4
O=C(Cn1cccc1)Nc1ccc(OC(F)(F)F)cc1	i
O=C1CC(c2cccs2)Cc2nc(NCC3CCCO3)ncc21 (stereo unspecified)	i
CC(=O)c1c(O)n(C2CCCCCC2)c(=O)[nH]c1=O	0.6
CC(=O)N(C1=NCCCS1)c1ccccc1F	i
Cc1cc(C)n(CCc2nc(-c3ccco3)cs2)n1	0.6
COc1cnc(N(C)C)nc1Sc1ccc(Cl)cc1	i
Cc1c(C#N)c2ccccc2n1CC(=O)NCC1CCCO1 (stereo unspecified)	0.5
Cc1ccc2c(c1)N(C(=O)CSc1nncn1C)C(C)(C)c1ssc(=S)c1-2	2.4
O=C(NCC12CC3CC(C1)CC(CNC(=O)N1CCCC1)(C3)C2)N1CCCC1	i
CC(=O)NCCc1ccc(S(=O)(=O)NC2OC(=O)c3ccccc32)cc1 (stereo unspecified)	1.0
C/C(=N\NC(N)=O)C1(C)CCCCC1	1.1
Cc1ccc(C(=O)O)cc1S(=O)(=O)N1CCC(C(=O)O)CC1	i
COC(=O)c1ccccc1NC(=O)C1CC(=O)N(c2ccc(F)cc2)C1 (stereo unspecified)	0.1
Cc1c(NCc2cc(Cl)ccc2O)c(=O)n(-c2ccccc2)n1C	i
O=C1C(=O)N(CCCN2CCOCC2)C(c2cccs2)/C1=C(/O)c1ccc2c(c1)OCO2 (stereo unspecified)	i
O=S(=O)(CCSc1nc2ccccc2o1)c1nc2ccccc2s1	i
COc1ccccc1-c1nc(C#N)c(N2CCC(C(N)=O)CC2)o1	i
CCOc1ccc(-c2nc(C#N)c(NCC3CCCO3)o2)cc1 (stereo unspecified)	1.3
CCOC(=O)C1=C(C)OC(N)=C(C#N)C1c1ccc(O)c(OC)c1 (stereo unspecified)	i
N#Cc1ccsc1NC(=O)CN1CCN(c2ccccn2)CC1	i
CCOC(=O)C1CCN(C(=O)Cc2c(C(=O)O)n(CC)c3ccccc23)CC1	1.4
COc1ccc2[nH]c(=O)c(CN(C(=O)c3cccnc3)c3ccccc3OC)cc2c1	1.2
CC(=O)Nc1ccc(S(=O)(=O)N2CCCN(S(=O)(=O)c3ccc(C)cc3)CC2)cc1	3.0
CNc1oc(-c2ccccc2)nc1C#N	1.1
COCCNC(=O)c1c(NC(=O)c2ccco2)n(Cc2ccccc2)c2nc3ccccc3nc12	i
CCc1cc(=O)oc2cc(C)cc(OC(C)C(=O)O)c12 (stereo unspecified)	0.3

Looked up above.
Under H5N1 antiviral, `Cc1ccc2c(c1)N(C(=O)CSc1nncn1C)C(C)(C)c1ssc(=S)c1-2` shows 2.4
Under H5N1 antiviral, `CCOC(=O)C(C(=O)Nc1nc2ccccc2s1)C1CCCCC1` (stereo unspecified) shows 0.8
Under H5N1 antiviral, `CC(=O)NCCc1ccc(S(=O)(=O)NC2OC(=O)c3ccccc32)cc1` (stereo unspecified) shows 1.0
Under H5N1 antiviral, `CCOC(=O)c1ccc(N/C=C2\CCCCC2=O)cc1` shows 0.4
Under H5N1 antiviral, `COc1ccc2[nH]c(=O)c(CN(C(=O)c3cccnc3)c3ccccc3OC)cc2c1` shows 1.2

Following part.
SMILES	H5N1 antiviral
CC(C)Cc1nnc(NC(=O)c2cc(-c3ccccc3)nc3ccccc23)s1	0.7
CCOc1ccccc1N(CC(=O)Nc1ccc(S(=O)(=O)N2CCOCC2)cc1)S(=O)(=O)c1ccccc1	i
Cc1cc(C(=O)NCCCN2CCCC2=O)no1	i
CCOc1cc(C2CC(=O)c3c(ccc4ccccc34)N2)ccc1O (stereo unspecified)	2.4
Cc1ccc(C)c(N2CCN(C(=O)C(Cc3ccccc3)n3cccc3)CC2)c1 (stereo unspecified)	i
O=C(Nc1cccc(NC(=O)c2ccc(Br)o2)n1)c1ccc(Br)o1	i
O=C(Nc1ccc(Oc2ccccc2)cc1)c1ccco1	i
CCOC(=O)CC(/C(C)=N\O)c1ccccc1 (stereo unspecified)	i
Cc1ccc(/C=N/n2c(C)nnc2C)cc1	i
Cc1ccccc1NCc1ccccc1O	i
O=C(CSc1nnc(-c2cnccn2)n1Cc1ccco1)Nc1ccc(Br)cc1	i
Cc1cccc(N2CCN(C(=O)C3CCN(S(=O)(=O)c4cccc5cccnc45)CC3)CC2C)c1 (stereo unspecified)	1.9
Cc1nc(CC(=O)Nc2nc(C(C)(C)C)cs2)cs1	1.1
O=C(Nc1ccccc1Oc1ccccc1)C1CC1	i
Cc1cc(C)nc(-n2nc(C)c(C3(O)C(=O)Nc4ccc(F)cc43)c2N)n1 (stereo unspecified)	i
CC(NC(=O)C1CCN(c2nnc(-n3cccc3)s2)CC1)C12CC3CC(CC(C3)C1)C2 (stereo unspecified)	i
O=C(/C=C/c1ccc(Br)cc1)NC1CCCCCC1	i
CCCC(=O)Nc1ccc(-c2nc3cc(C)ccc3o2)cc1	i
COCCNC(=O)c1onc(CSc2cccc(C)c2)c1C(=O)O	0.3
O=C(Nc1ccncc1)c1cn(-c2ccccc2)nc1-c1cccs1	0.1
Cc1ccccc1-n1ncc2c([N+](=O)[O-])cc([N+](=O)[O-])cc21	6.7
Cc1c(C(=O)NCCCN2CCOCC2)sc2ncnc(N3CCN(c4ccccc4)CC3)c12	i
CCc1ccccc1NC(=O)N[C@@H](C)C(=O)OC	i
CC(=O)N1c2ccccc2C(=O)OC1c1cccnc1 (stereo unspecified)	0.1
CCN(CC)CCCN(Cc1cc2cc3c(cc2[nH]c1=O)OCCO3)C(=O)Nc1ccccc1	2.0
CC1=C(C(=O)O)N2C(=O)C(NC(=O)c3nn(C)cc3Cl)C2SC1 (stereo unspecified)	i
CCc1cc(=O)oc2c(CN3CCCC3)c(O)c(Cl)cc12	i
Cc1sc2nc(SCC(=O)NCc3ccco3)n(-c3ccccc3)c(=O)c2c1C	i
O=C(N/N=C\c1cn[nH]c1-c1ccccc1)c1cccnc1	i
O=C1CCC(=O)N1OCCCOc1ccc(Br)cc1Cl	i
CCCCOC(=O)c1ccc(NC(=O)C2CCCO2)cc1 (stereo unspecified)	i
CC(=O)Nc1ccc(NC(=O)N2CCCCC2)cc1	0.1
CC1(C)N=C(N)NC(Nc2cccc(Br)c2)=N1	i
CC(=O)OCCNC(=O)c1cccnc1	0.1
CC(=O)C1=C(O)C(=O)N(c2cc(C(C)(C)C)on2)C1c1ccc(Br)cc1 (stereo unspecified)	i
CC1(C)Cc2cccc(OCC(=O)Nc3cc(C(F)(F)F)ccc3N3CCOCC3)c2O1	0.2
O=C(Nc1cccc(Cl)c1)c1ccc2c(=O)n3c(nc2c1)CCCCC3	i
NC(=O)c1c(C(F)(F)F)cc(-c2ccccc2)nc1NCCO	1.6
c1cnc2ccc(C(c3nnnn3C3CCCC3)N3CCN(c4nc5ccccc5s4)CC3)cc2c1 (stereo unspecified)	0.7
COCCN1Cc2cccc(C(=O)NCc3cccnc3)c2C1=O	3.3
OC12CCCCC1C(c1ccc3c(c1)OCO3)N(Cc1cccc(F)c1)CC2 (stereo unspecified)	i
O/N=C/c1cc(Cl)ccc1OCc1ccccc1Cl	i
CCc1cccc(NC(=O)C2CCCN(S(=O)(=O)c3c(C)[nH]c(=O)[nH]c3=O)C2)c1 (stereo unspecified)	i
CCN1CCN(C(CNS(=O)(=O)c2ccc(OC)cc2)c2cccnc2)CC1 (stereo unspecified)	i
O=C(COc1ccc(/C=N/NC(=O)c2ccccc2)cc1)Nc1ccc([N+](=O)[O-])cc1	i
COc1ccc(-c2c3c(=O)n(C)c(=O)n(C)c3cn2NC(C)=O)cc1	i
COc1ccc(OCC(=O)N(C)Cc2ccccc2)cc1	0.3
CCOc1ccc(OCC(=O)Nc2ccc(OC)cc2)cc1	i
COc1ccc(-n2nnc3c(=O)n(Cc4ccccc4C)cnc32)cc1	i
COc1ccccc1N1CCN(S(=O)(=O)c2ccc3c4c(cccc24)C(=O)N3C)CC1	1.1

Next part
SMILES	H5N1 antiviral
CCCc1[nH]nc2c1C(c1ccc(OC(=O)c3ccco3)cc1)C(C#N)=C(N)O2 (stereo unspecified)	i
COc1cc2c(cc1OC)C(C(=O)N1CCCC1)C(c1ccccc1F)N(C)C2=O (stereo unspecified)	i
COC(=O)c1ccc(=O)n(-c2ccc(OC)cc2)c1	0.5
CCN(CC)CCNC(=O)c1cc2c(=O)n(C)c3ccccc3c2n1C	3.6
CCOc1ccc(/C=N/NC(=O)Cc2csc(Nc3cccc(C(F)(F)F)c3)n2)c(OCC)c1	0.8
COc1ccc(C2C(C(=O)NCc3ccccc3)=C(C)Nc3ncnn32)cc1OC (stereo unspecified)	0.3
Cc1ccccc1-n1c(=O)c2ccccc2n2cnnc12	i
Cc1ccccc1N(CC(=O)N/N=C/c1ccc(N(C)C)cc1)C(=O)c1ccccc1	1.2
COC(=O)Cc1nnc(NC(=O)c2ccccc2)s1	1.4
CC(=O)c1ccc(N2CCN(C(=O)c3ccco3)C(C)C2)c(F)c1 (stereo unspecified)	i

Looked up one by one from the list above (3):
SMILES	H5N1 antiviral
Cc1ccc(C(=O)O)cc1S(=O)(=O)N1CCC(C(=O)O)CC1	i
CCOC(=O)C1CCN(C(=O)Cc2c(C(=O)O)n(CC)c3ccccc23)CC1	1.4
COc1cc(C(=O)NCCC(=O)NCCCN2CCCCC2C)cc(OC)c1OC (stereo unspecified)	0.5

(listing goes on)
SMILES	H5N1 antiviral
CC(C)(C)c1nc(CN2CCOCC2)ccc1O	0.2
CCOC(=O)c1c(C2COc3ccccc3O2)csc1N (stereo unspecified)	0.5
COc1ccc(OC)c(N(CC(=O)Nc2ccc3c(c2)OCO3)S(=O)(=O)c2ccccc2)c1	2.4
CCOC(=O)N1CCN(C(=O)c2cnn3ccccc23)CC1	3.5
COC(=O)Cn1c(=NC(=O)C(C)(C)C)sc2c(C)cc(C)cc21	0.2
CCc1ccc2oc(=O)cc(CN3CCC(C)CC3)c2c1	1.4
CCOC(=O)c1ccc(N=Cc2nc(-c3ccccc3)oc2OC(C)=O)cc1	i
CCSc1nnc(NC(=O)c2ccc(Br)s2)s1	i
Cc1ccc(CSCC(=O)N/N=C/c2sccc2C)cc1	0.3
Cc1occc1C(=O)NC(C)C(C)(C)C (stereo unspecified)	1.4
CCOc1cccc2sc(NC(=O)CC)nc12	i
